# From PubChem
# Sfp inh – blocks B. subtilis Sfp PPTase activity | Q9F4F7 | Biochemical Sfp PPTase activity, qHTS | Potency, µM, inactives show max response, negative = inhibition, most hits filed as inhibitors | 3.5% of 310,000 active; active means well fitted inhibition curve with a large enough effect; inconclusive means small, poorly fitted or top-dose-only effect, or another doubt; inactive means no such curve, though single readings can be large or run the other way;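 further: the enzyme is Sfp with the accession as filed and its product quenches rhodamine fluorescence; potency means the concentration at half of the fitted maximal effect; 0% = enzyme reaction without inhibitor and -100% = no enzyme wells; top concentration of the series not given in the record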
#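 Reaction rates are the 30-min fluorescence difference (ex 525, em 598 nm) in wells containing 15 nM Sfp, 5 uM rhodamine-CoA and 12.5 uM BHQ-2-YbbR at pH 7.6 with 10 mM MgCl2.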
# Menin MLL FP FL – menin-MLL binding inhibition, fluorescein peptide; Fluorescence polarization, fluorescein-MLL peptide displacement from menin; FP activity change, % at 61.4 µM; 290,000 tested, under 10 active; inconclusive = falling polarisation curve, or a change in total fluorescence; inactive = total fluorescence flat and polarisation flat or rising; no compound was filed as active; the % refers to the polarisation; negative = inhibition;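 further: % of control where 0% means no effect; inhibitors lower the polarisation; unlabelled MLL peptide was the positive control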
# PINK1 expr mod – changes PINK1 expression. Potency, µM (series often up to 76.6 µM), for the others: at the top dose activation (PINK1 increase), most hits filed as activators. PINK1 immunofluorescence, high-content cytometry, 24 h. 0.2% of 410,000 active; active = well fitted activation curve with a large enough effect; inconclusive = small, poorly fitted or top-dose-only effect; inactive = flat fitted curve, though single readings scatter; cell line not stated here;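 further: potency means the concentration at half of the fitted maximal effect; % of control where 0% means no effect; nearly all actives have a fitted effect of over 65% in size; a mitochondrial uncoupler was the plate control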
#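 Decision-based qHTS: stable cells, 24 h exposure to five compound concentrations, CCCP as control. Fixed cells stained for PINK1 plus nuclear, mitochondrial and cell markers, cytometer read.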
# TRPV1 potentiator – potentiators of human vanilloid receptor 1 (TRPV1); 0.02% of 320,000 active; TRPV1-expressing cells, Fluo-8 calcium influx, capsaicin EC20 potentiation; host cell line not named in the record; control for the full effect not named in the record; AID 540277; potentiation, % at 8.33 µM; active means potentiation above 80%; inconclusive means 30% to 80%; inactive means below 30%; further: 0% is about no effect
# Target sequence (Q8NER1 whole entry, looked up): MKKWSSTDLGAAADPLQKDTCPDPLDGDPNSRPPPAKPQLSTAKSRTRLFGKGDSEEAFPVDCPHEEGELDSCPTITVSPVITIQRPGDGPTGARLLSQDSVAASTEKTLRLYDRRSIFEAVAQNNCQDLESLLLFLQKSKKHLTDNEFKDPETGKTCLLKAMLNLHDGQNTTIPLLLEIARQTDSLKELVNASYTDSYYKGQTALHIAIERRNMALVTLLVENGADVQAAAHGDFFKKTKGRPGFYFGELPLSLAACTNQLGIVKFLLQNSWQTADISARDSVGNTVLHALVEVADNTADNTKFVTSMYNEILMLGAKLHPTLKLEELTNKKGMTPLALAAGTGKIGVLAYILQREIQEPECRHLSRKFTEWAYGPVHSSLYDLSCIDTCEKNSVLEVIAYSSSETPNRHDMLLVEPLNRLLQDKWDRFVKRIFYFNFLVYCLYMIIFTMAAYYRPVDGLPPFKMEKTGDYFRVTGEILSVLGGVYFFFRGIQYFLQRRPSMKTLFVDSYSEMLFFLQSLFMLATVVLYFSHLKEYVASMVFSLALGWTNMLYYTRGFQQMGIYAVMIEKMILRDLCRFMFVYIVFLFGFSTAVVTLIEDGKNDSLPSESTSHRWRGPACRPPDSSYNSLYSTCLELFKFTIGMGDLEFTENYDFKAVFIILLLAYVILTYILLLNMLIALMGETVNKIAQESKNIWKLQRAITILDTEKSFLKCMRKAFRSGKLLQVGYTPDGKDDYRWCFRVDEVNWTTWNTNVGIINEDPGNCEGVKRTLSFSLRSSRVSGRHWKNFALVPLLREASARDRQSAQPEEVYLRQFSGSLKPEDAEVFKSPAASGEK
#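 Fluo-8 calcium influx in TRPV1-expressing cells, kinetic read (ex 480/em 520 nm). Compound added and read 3 min for agonist activity, followed by capsaicin at EC20 final and 2 min further read for enhancement.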
# TRPML1 inh – blocks the human TRPML1 channel; 0.02% of 390,000 active; Q9GZU1; activity change, negative = inhibition, % (concentration not given with the values); TRPML1-inducible cells, Ca2+ dye fluorescence, FDSS; stronger effect = lower value; inhibition of EC80 agonist-evoked calcium signal; in the data active means activity change below about -50%; inconclusive means about -30% to -50%; inactive means above about -30%;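 further: stimulus is agonist 54-4 at its EC80 concentration; on the % scale 0 is the no-effect control and ±100 the full control effect; compound concentration not given in the record; the text of the record puts the active cut at -80%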
#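 Tet-induced TRPML1-DL cells loaded with Ca8 no-wash calcium dye were read kinetically on FDSS. Compound addition was followed by EC80 agonist 54-4 (4 uM final); inhibition was read over 110 s.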
# ClpP mod – qHTS Assay for Activators of ClpP | 1.9% of 340,000 active | purified B. subtilis ClpP, FRET peptide cleavage, 20 min | ATP-dependent Clp protease proteolytic subunit (Bacillus subtilis (strain 168)), P80244 | Potency, µM (titrated, usually from 57.5 µM), for inactives: top-dose activity change, negative = active; active = well fitted falling curve with a large enough effect; inconclusive = small, poorly fitted or top-dose-only effect; inactive = no such curve, though single readings can be large or run the other way; further: potency means the concentration at half of the fitted maximal effect; the source files actives as falling curves though it sought activators and does not explain the sign; nearly all actives have a fitted effect of over 65% in size; many hits overshoot -100%
# Target sequence (P80244 whole entry, looked up): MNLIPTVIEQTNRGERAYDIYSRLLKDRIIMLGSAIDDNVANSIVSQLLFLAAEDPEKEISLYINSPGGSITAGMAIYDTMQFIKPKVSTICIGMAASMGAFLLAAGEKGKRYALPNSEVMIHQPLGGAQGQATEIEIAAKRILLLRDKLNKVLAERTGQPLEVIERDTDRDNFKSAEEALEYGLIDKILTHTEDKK
#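 ClpP 10 microg/mL final, pH 8 Tris/KCl buffer with BSA, glycerol, Tween-20; compound pinned in; FRET-FV substrate; RT 20 min; Ex320/Em430; ΔFRET vs ADEP 5.8 microM, DMSO, no enzyme.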
# TRPML1 ag – activates the human TRPML1 channel; Q9GZU1; 0.12% of 410,000 active; TRPML1-expressing cells, Ca2+ dye fluorescence, FDSS; host cell line not named in the record; reference of the full effect not given here; activation, % (concentration not given with the values); in the data active = activation above about 50%; inconclusive = about 30% to 50%; inactive = below about 30%; further: 0% is about no effect; the text of the record puts the active cut at 80%
#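 Kinetic FDSS Ca2+ read in Tet-induced TRPML1-DL cells (ABD Ca8 dye plus quencher, 45-90 min RT loading): baseline, then compound, then 110 s agonist window; EC80 agonist 54-4 at 4uM final added afterwards for a 110 s antagonist window.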
# * marks the source's active call; other numbers are inactive results; ? = inconclusive; · = not tested or not shown; [ ] = dose if it differs, or a comment.
# Below each SMILES: Sfp inh	Menin MLL FP FL	PINK1 expr mod	TRPV1 potentiator	TRPML1 inh	ClpP mod	TRPML1 ag
> C=CC[C@@H](CC(=O)N(CCO)Cc1ccccc1)C(=O)N[C@H](COC(=O)[C@@H](CC=C)CC(=O)OC(C)(C)C)C(C)(C)C
    ·	·	2.1%	·	9.8	0.0%	0.4
> Cc1cc(C)n(C(=O)c2ccc(NC(=O)CC(C)C)cc2)n1
    15.5%	-0.8	·	-28.2	0.6	-10.6%	0.5
> CCOc1ccccc1NC(=O)C(CC(C)C)NS(=O)(=O)c1ccc2c(c1)CCN2C(C)=O (stereo not given)
    ·	·	1.5%	·	1.7	3.2%	-0.9
> COc1ccccc1CCNC(=O)/C(=C/c1cccnc1)NC(=O)c1ccccc1
    15.8%	1.6	1.0%	6.7	-8.6	-3.4%	0.3
> CN(CCCC1CCCC1)C(=O)CC1C(=O)NCCN1Cc1ccc(F)cc1 (stereo not given)
    -3.8%	16.0	2.6%	-13.9	2.1	0.0%	-0.3
> Cc1ccc(C)c(NC(=O)C2(C)CCCN2C(=O)C(C)C)c1 (stereo not given)
    ·	·	1.5%	·	·	-7.9%	-0.4
> COc1ccc(CC(=O)Nc2cc(-c3cn4cccnc4n3)ccc2C)cc1OC
    ·	·	1.7%	·	-19.8	4.6%	0.2
> Cc1nnc(SCC2=C(C(=O)O)N3C(=O)C(NC(=O)COc4ccccc4)C3SC2)s1 (stereo not given)
    ·	·	0.4%	-6.8	-11.0	·	-0.1
> CCN1CCCC1CNC(=O)c1cc2c(OC)c(OC)c(OC)cc2[nH]1 (stereo not given)
    5.2%	-2.6	-0.1%	-12.5	2.2	0.8%	-0.9
> CC1(C)C(C=C(Cl)Cl)C1C(=O)Nc1ccc(S(=O)(=O)Nc2ncccn2)cc1 (stereo not given)
    21.6%	2.7	2.2%	11.1	28.9	0.0%	-1.6
> CC1CN(C(=O)Nc2ccc3c(c2)OCCO3)CC(C)O1 (stereo not given)
    22.0%	-1.6	1.9%	7.6	-6.0	3.55µM*	-0.4
> O=[N+]([O-])C(=C1SCCS1)C(=C(Cl)Cl)N1CCCCC1
    -4.1%	0.8	3.6%	-1.5	-0.5	·	0.1
> COc1cccc(C(=O)CSc2nnc(CNS(=O)(=O)c3ccc(C)cc3)n2C)c1
    -9.5%	-0.2	-5.1%	-0.8	20.9	0.5%	4.0
> CC(Oc1cccc(Cl)c1)C(=O)Nc1ccncc1 (stereo not given)
    -5.9%	0.2	2.5%	-15.1	29.8	-0.9%	0.4
> O=c1c2sccc2nc(SCc2cc(=O)n3ccccc3n2)n1-c1ccc(Br)cc1
    8.5%	4.3	0.6%	-13.5	-8.7	?	0.1
> CCOc1cc(CN2CCN(C(=O)CC(C)C)CC2)ccc1OC
    ?	-0.7	-0.6%	-3.4	3.5	-2.2%	0.7
> O=C(CSc1nnnn1-c1ccccc1)N1CCNC1=O
    2.0%	·	2.6%	-6.6	-3.3	-4.8%	-0.1
> CC(=O)C1=C(c2ccc(Br)cc2)N(C(C)=O)n2c(nnc2C2CCCCC2)S1
    ·	·	-1.6%	·	-10.1	-1.4%	2.5
> COc1ccccc1OCc1ccc(C(=O)N2CCCCC2)o1
    7.2%	-1.1	-0.9%	-6.6	0.9	·	1.3
> CN(C)c1ccc(C(=O)N2CCN(c3cc(C(F)(F)F)nc4ccccc34)CC2)cc1
    -6.2%	-0.3	1.3%	9.9	16.0	0.4%	-0.1
> c1ccc(CCNc2c3c(nc4ncnn24)CCC3)cc1
    -8.0%	6.0	-2.4%[38.3 µM]	-26.7	-19.9	1.0%	-0.5
> Cc1nc(NC(=O)c2ccccc2)sc1-c1csc(NCCc2ccccc2)n1
    18.9%	5.5	0.2%	5.7	-10.9	-4.6%	1.3
> Cc1ccc(CN(CC(=O)NC2CCCC2)C(=O)CSc2nnc(COc3ccccc3)o2)cc1
    -4.6%	-4.8	12.0%	-33.6	11.4	4.1%	-0.2
> O=C(Nc1ccccc1C(=O)Nc1nncs1)c1ccccc1
    -6.5%	6.0	7.5%	2.2	-22.1	·	0.9
> CCOC(=O)CSC1=N/C(=C/c2ccc(-n3cncn3)cc2)C(=O)N1C(C)=O
    5.1%	0.0	-0.3%	10.4	-7.7	·	-0.2
> CC(C)CC(=O)Nc1ccc(C(=O)COc2ccc(-c3nnco3)cc2)cc1
    3.4%	3.8	-0.3%	-17.7	?	-1.4%	1.7
> CCCCn1nc(C(=O)N(C)CC(=O)Nc2cccc(F)c2)c2ccccc2c1=O
    ·	·	7.2%	12.6	-17.5	1.0%	0.1
> COc1ccc([N+](=O)[O-])cc1/C=N/NC(=O)c1nonc1N
    11.7%	-2.8	-0.8%	-4.8	40.3	-7.5%	0.1
> Cc1cccc(NC(=O)N[C@@H](C)C(=O)O)c1
    15.4%	1.7	4.9%	-0.4	-1.1	15.8µM*	-0.7
> O=C(CSc1nc2ccc(Cl)cc2[nH]1)Nc1ccc2[nH]c(=O)[nH]c2c1
    ·	·	2.4%	11.1	3.5	-3.6%	0.5

# Continuation.
# Below each SMILES: Sfp inh	Menin MLL FP FL	PINK1 expr mod	TRPV1 potentiator	TRPML1 inh	ClpP mod	TRPML1 ag
> CC(C)C[C@H](NC(=O)c1nc[nH]c1C(=O)NC(c1ccccc1)c1ccccc1)C(=O)OC(C)(C)C
    27.2%	-6.8	11.3%	10.6	-10.9	-1.2%	-0.1
> C#CCOCCOCCOCCNc1nc(N2CCN(C(=O)CCCCCCCCCCNC(=O)[C@H](CO)n3cc(CCCSC)nn3)CC2)nc(N2CCN(C(=O)CCCCCCCCCCNC(=O)[C@H](CCCN=C(N)N)n3cc(C[C@@H](C)CC)nn3)CC2)n1
    ·	·	0.8%	-1.4	20.9	0.3%	-0.4
> O=C(NCCCC(NC(=O)OCc1ccccc1)C(=O)O)OCc1ccccc1 (stereo not given)
    12.9%	-2.4	0.7%	7.9	-5.3	-0.9%	0.0
> Cc1ccc(OC(=O)CCC(=O)NC(C)c2ccccc2)cc1 (stereo not given)
    0.8%	1.4	2.1%	-20.1	1.6	-1.1%	1.7
> CCOC(=O)CN(C(=O)CSc1nnc(CNc2ccc(F)cc2)o1)c1ccccc1
    3.9%	6.3	-1.8%	17.8	-6.0	0.5%	0.7
> COc1ccc(CCN2C(=O)CC(C(N)=O)SC2=Nc2ccccc2)cc1OC (stereo not given)
    4.9%	2.7	-1.0%	5.2	19.4	11.5%	0.4
> Cc1ccc2c(c1)N(CC(=O)N1CCOCC1)C(=O)CO2
    10.9%	·	3.0%	3.2	0.9	·	0.6
> CN1CCC(NC(=O)C2(C)CCN2Cc2ccc3ccccc3c2)CC1 (stereo not given)
    ·	·	-0.6%	·	·	-0.5%	0.6
> COc1cccc(Oc2nc(C)nc3c2oc2ccccc23)c1
    ·	·	0.4%	·	-0.5	-1.4%	0.0
> CCOc1ccc(CNC(=O)CCS(=O)(=O)c2cc3c(cc2Cl)NC(=O)CO3)cc1OC
    ·	·	2.3%	·	-11.7	1.5%	3.8
> Cc1cc(NS(=O)(=O)c2ccc(NC(=O)COc3ccc(Br)cc3C)cc2)no1
    ·	·	0.7%	·	-14.1	-0.4%	1.1
> Cc1ccc(C#N)c(SCc2ccccc2[N+](=O)[O-])n1
    1.0%	-1.2	0.2%	-4.3	-2.2	-1.2%	2.8
> COc1cccc(/C=N/N(C)C2=NS(=O)(=O)c3ccccc32)c1O
    21.3%	-0.2	4.5%	2.7	·	1.1%	·
> COc1ccc(C(=O)/C(=C/O)N=Nc2ccc(F)cc2)cc1
    -3.9%	-0.1	?	-1.5	-9.9	·	-0.6
> Cc1cccc(C(=O)N2CCCC(N3CCN(c4ccccc4)CC3)C2)n1 (stereo not given)
    12.2%	2.1	3.2%	0.9	6.5	-1.7%	-0.5
> Cc1ccc(S(=O)(=O)NC(=O)c2cc(C)n(CCCN3CCOCC3)c2C)cc1
    16.4%	2.8	-0.7%	-2.7	-14.4	-2.6%	-0.3
> COc1cc(-c2nc(S(=O)(=O)c3ccc(Cl)cc3)c(N(C)C)o2)cc(OC)c1OC
    2.8%	4.4	-0.2%	26.3	11.5	-2.6%	-0.9
> COc1cccc(NC(=O)C2C3C=CC4(O3)C2C(=O)N(CCCN2CCCCC2)C4C(=O)NC2CCCCC2)c1 (stereo not given)
    6.0%	-3.4	0.3%	-3.5	-4.4	1.6%	-0.3
> Cc1nn(-c2cccc(Cl)c2)c2nc(-c3ccco3)cc(C(=O)O)c12
    28.2µM*	5.2	1.4%	10.8	17.7	14.1µM*	-0.2
> COC(=O)c1ccccc1NC(=O)CN1CCc2ccccc2C1
    20.6%	-0.5	0.0%	-22.3	17.5	0.5%	3.3
> COc1ccc(NS(=O)(=O)c2cc(Br)cc3c2N(C(=O)C2CC2)CC3)cc1OC
    ·	·	2.2%	·	5.4	3.6%	-0.5
> COC(=O)[C@H]1C[C@H](OC(=O)NCc2ccccc2)[C@@]2(O)CN(S(=O)(=O)c3ccc(C)cc3)CC2[C@H]1C(=O)OC (stereo not given in full)
    ·	·	1.1%	·	-11.1	-1.9%	0.0
> Cc1cc(NC(=O)CSc2ccc3nnc(-c4ccc(Cl)cc4)n3n2)no1
    1.5%	3.7	7.0%[38.3 µM]	1.7	-1.2	-17.1%	-0.4
> CC(C)(C)c1ccc(C(=O)NC(=S)N2CCOCC2)cc1
    -15.5%	·	0.4%	4.6	0.3	0.4%	-0.2
> CC(C)[C@H](NC(=O)Nc1cccc(Br)c1)C(=O)O
    14.3%	4.5	0.2%	0.5	5.4	0.5%	-0.6
> COc1ccc(N2CCN(C(=O)CCCn3c(=S)[nH]c4cc5c(cc4c3=O)OCO5)CC2)cc1
    18.2%	0.7	·	-4.4	-10.1	0.8%	2.5
> COc1ccc(C(=O)NN2CCCCC2)cc1OC
    17.8%	0.1	9.6%[38.3 µM]	8.0	-6.4	-0.8%	0.4
> O=C(Nc1ccccc1N1CCOCC1)c1cccc(S(=O)(=O)Nc2ccccc2F)c1
    ·	·	0.4%	-7.4	14.1	2.0%	1.7

# Structures listed above marked active in Sfp inh.
SMILES	Sfp inh	Menin MLL FP FL	PINK1 expr mod	TRPML1 inh
Cc1nn(-c2cccc(Cl)c2)c2nc(-c3ccco3)cc(C(=O)O)c12	28.2µM*	5.2	1.4%	17.7
